Screens as filed in PubChem BioAssay.
NOMO-1 viab: NOMO-1 AML cell viability reduction, primary screen, STK33 inhibitor project, CellTiter-Glo luminescence. AID 2330, 2010. NOMO-1 AML viability, 72 h. 37,000 compounds, 7.5% hits. inhibition, % (test concentration not listed);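 active = most replicates above 80%; inconclusive = exactly half above 80%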;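 also: wells of about 30 µL received 25 nL stock; 0% = median of vehicle wells and 100% = reference inhibitor level; the first replicate is given; inactives centre near 10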
Active calls of the source: *; ? = inconclusive. An excerpt; rates above refer to the full screens.

No. | Structure | NOMO-1 viab
1 | C[C@H](CO)N1C[C@H](C)[C@@H](CN(C)Cc2ccc(C(=O)Nc3ccccc3N)cc2)Oc2ccc(NC(=O)C3CC3)cc2C1=O | 18.2
2 | O=C(Cn1cc(Br)c([N+](=O)[O-])n1)Nc1ccccc1F | 19.1
3 | Nc1nc(-c2cccnc2)nn1C(=O)c1ccco1 | -3.4
4 | C[C@@H]1CN([C@H](C)CO)C(=O)c2cc(NC(=O)Nc3ccc(F)cc3)ccc2O[C@H]1CN(C)C(=O)Nc1cccc2ccccc12 | 15.0
5 | C[C@@H]1CN([C@@H](C)CO)C(=O)c2cc(NC(=O)CCN3CCOCC3)ccc2O[C@@H]1CN(C)C(=O)Nc1ccccc1 | 16.8
6 | Cc1ccccc1-c1nnc(SCC(=O)Nc2cccc(Br)c2)n1C | 41.3
7 | CC1(C)CC(=O)c2c(SCCOC(=O)c3ccccc3Cl)sc(C#N)c2C1 | -8.1
8 | C[C@H](CO)N1C[C@H](C)[C@@H](CN(C)S(=O)(=O)c2ccc(F)cc2)Oc2c(NS(=O)(=O)c3cccs3)cccc2C1=O | 1.2
9 | COc1ccc(OC)c(NC(=O)c2c(NC(=O)CN3CCOCC3)sc3c2CCC3)c1 | -5.1
10 | COc1ccc(NC(=O)Nc2ccc3c(c2)C(=O)N([C@H](C)CO)C[C@@H](C)[C@H](CN(C)C(=O)Nc2ccccc2)O3)cc1 | 7.9
11 | COc1cc(C)c(C(C)C)cc1S(=O)(=O)NC1CC(C)(C)NC(C)(C)C1 | 18.5
12 | Cc1ccc(S(=O)(=O)N(C)C[C@H]2Oc3ccc(NS(=O)(=O)c4cn(C)cn4)cc3C(=O)N([C@@H](C)CO)C[C@H]2C)cc1 | 12.9
13 | C[C@H]1CN([C@@H](C)CO)C(=O)c2cccc(NS(=O)(=O)c3cccs3)c2O[C@H]1CN(C)Cc1ccc2c(c1)OCO2 | 18.3
14 | CC(CC(N)=O)OC(=O)c1cc(Cl)cc(O)c1O (configuration not stated) | 88.0*
15 | C[C@H](CO)N1C[C@H](C)[C@H](CN(C)Cc2ccc3c(c2)OCO3)Oc2c(NS(C)(=O)=O)cccc2C1=O | -12.9
16 | COc1c(C(=O)O)ccc2c1CCC(C)(C)O2 | 1.9
17 | O=C(CSc1nnc(-c2ccco2)n1-c1ccccc1)c1ccc(F)cc1 | -10.9
18 | CNC[C@@H]1Oc2ccc(NC(=O)Nc3c(C)noc3C)cc2CC(=O)N([C@H](C)CO)C[C@@H]1C | -6.2
19 | C[C@@H]1CN([C@@H](C)CO)C(=O)c2cccc(NC(=O)C3CCCCC3)c2O[C@@H]1CN(C)C(=O)NC1CCCCC1 | 2.5
20 | C[C@@H]1CCCCO[C@H](CN(C)Cc2ccc3c(c2)OCO3)[C@@H](C)CN([C@H](C)CO)C(=O)c2cc(NC(=O)C3CCCCC3)ccc2O1 | 11.4
21 | C[C@@H]1CN([C@@H](C)CO)C(=O)c2cc(NS(=O)(=O)c3cn(C)cn3)ccc2O[C@H]1CN(C)Cc1ccc(C(F)(F)F)cc1 | -12.0
22 | O=C(Oc1ccc(-c2ccccc2)cc1)c1ccco1 | 2.9
23 | O=C(O)CCSc1nc2ccccc2s1 | 16.9
24 | CCn1c2ccccc2c2cc(NC(=O)CN(C)S(=O)(=O)c3ccc(Cl)cc3)ccc21 | 14.6

In the list so far, these contain bromine.
No. | Structure | NOMO-1 viab
2 | O=C(Cn1cc(Br)c([N+](=O)[O-])n1)Nc1ccccc1F | 19.1
6 | Cc1ccccc1-c1nnc(SCC(=O)Nc2cccc(Br)c2)n1C | 41.3

More results follow:
No. | Structure | NOMO-1 viab
25 | Cc1noc(C)c1NC(=O)Nc1ccc2c(c1)C(=O)N([C@@H](C)CO)C[C@H](C)[C@H](CN(C)C(=O)Nc1ccc(F)cc1)O2 | 18.8
26 | CCN(CC)S(=O)(=O)c1ccc(Cl)c(C(=O)Oc2ccc(C)c(C)c2)c1 | 22.7
27 | C[C@H]1CN([C@@H](C)CO)C(=O)Cc2cc(NC(=O)CCN3CCOCC3)ccc2O[C@H]1CN(C)C(=O)Nc1ccc2c(c1)OCO2 | 13.5
28 | CNC[C@@H]1Oc2ccc(NC(=O)Cn3cnnn3)cc2C(=O)N([C@H](C)CO)C[C@H]1C | 5.7
29 | COc1ccc(NC(=O)Nc2ccc3c(c2)C(=O)N([C@H](C)CO)C[C@H](C)[C@H](CN(C)CC2CCCCC2)OCCCC[C@@H](C)O3)cc1 | 19.1
30 | COc1ccc(CN(C)C[C@H]2Oc3ccc(NC(=O)Nc4ccccc4)cc3C(=O)N([C@H](C)CO)C[C@H]2C)cc1 | 36.9
31 | Cc1cc(C)cc(Sc2ccc3nnc(-c4ccccc4)n3n2)c1 | 122.3*
32 | Cc1nn(CC(=O)Nc2ccc(O)cc2)c(C)c1[N+](=O)[O-] | -1.0
33 | COc1ccc(NC(=O)N(C)C[C@H]2Oc3ccc(NC(=O)Cc4ccccc4)cc3C(=O)N([C@H](C)CO)C[C@H]2C)cc1 | 22.2
34 | C[C@H]1CN([C@@H](C)CO)C(=O)Cc2cc(NC(=O)CCN3CCOCC3)ccc2O[C@H]1CN(C)S(=O)(=O)c1ccccc1 | 2.8
35 | C[C@@H]1CN([C@H](C)CO)C(=O)c2cccc(NS(=O)(=O)c3ccccc3)c2O[C@H]1CN(C)S(=O)(=O)c1ccc(Cl)cc1 | 8.7
36 | C[C@@H]1CN([C@@H](C)CO)C(=O)Cc2cc(NS(C)(=O)=O)ccc2O[C@@H]1CN(C)CC1CCCCC1 | 1.3
37 | CCN(CC(=O)Nc1ccc(OC)cc1)S(=O)(=O)c1ccc(C)cc1 | -14.0
38 | Cc1ccc(NC(=O)CSc2nc3ccccc3c(=O)n2-c2ccccc2)c(C)c1 | 31.1
39 | C[C@@H]1CN([C@H](C)CO)C(=O)c2cc(NC(=O)c3ccncc3)ccc2O[C@H]1CN(C)Cc1ccc(C(=O)O)cc1 | -14.3
40 | C[C@H]1CN([C@@H](C)CO)C(=O)c2cccc(NC(=O)c3ccc(-c4nccs4)cc3)c2O[C@@H]1CN(C)CC1CCCCC1 | 34.5
41 | Cc1cc(C)c(NC(=O)CSc2nnc(-c3ccccc3)n2-c2ccc(F)cc2)c(C)c1 | 15.5
42 | C[C@@H]1CN([C@H](C)CO)C(=O)Cc2cc(NC(=O)Cc3cn(C)c4ccccc34)ccc2O[C@@H]1CN(C)Cc1ccc(Cl)c(Cl)c1 | 95.2*
43 | Cc1ccc(C(=O)Nc2sc3c(c2C#N)CCCC3)cc1S(=O)(=O)N1CCOCC1 | 14.2
44 | COc1cc(NC(=O)CN(C)S(=O)(=O)c2ccc3ccccc3c2)c(OC)cc1Cl | -2.7
45 | C[C@@H]1CN([C@@H](C)CO)C(=O)c2cc(NC(=O)Nc3ccc(F)cc3)ccc2O[C@@H]1CN(C)C | -19.2
46 | O=C(Nc1ccccc1Cl)C1CC(=O)n2ncnc2N1 (configuration not stated) | -21.4
47 | COc1cc(S(=O)(=O)NC2CC(C)(C)NC(C)(C)C2)c(OC)cc1Br | -19.1
48 | Cc1ccc(S(=O)(=O)Nc2cccc3c2O[C@@H](CN(C)S(=O)(=O)c2cn(C)cn2)[C@@H](C)CN([C@@H](C)CO)C3=O)cc1 | 13.3
49 | C[C@@H]1CCCCO[C@H](CN(C)CC2CC2)[C@@H](C)CN([C@H](C)CO)C(=O)c2cc(NC(=O)Cc3ccccc3)ccc2O1 | 5.3
50 | O=[N+]([O-])c1ccc(NC(=S)NCCCn2ccnc2)cc1 | -4.7
51 | Cc1noc(C)c1S(=O)(=O)Nc1ccc2c(c1)CC(=O)N([C@H](C)CO)C[C@@H](C)[C@H](CN(C)S(=O)(=O)c1cn(C)cn1)O2 | 12.6
52 | CCn1c2ccccc2c2cc(NC(=O)CCN3C(=O)c4ccccc4C3=O)ccc21 | 0.6
53 | CCOC(=O)c1cccc2c1-c1ccccc1C2=O | -3.1
54 | C[C@@H]1CN([C@H](C)CO)C(=O)Cc2cc(NC(=O)Nc3cccc4ccccc34)ccc2O[C@H]1CN(C)C | 10.8
55 | C[C@@H]1CN([C@H](C)CO)C(=O)c2cccc(NC(=O)Nc3ccc(C(F)(F)F)cc3)c2O[C@H]1CN(C)Cc1ccncc1 | 42.3
56 | C[C@@H]1CN([C@@H](C)CO)C(=O)c2cc(NC(=O)Nc3ccccc3)ccc2O[C@@H]1CN(C)C(=O)Nc1cccc2ccccc12 | 67.2
57 | C[C@@H]1CN([C@@H](C)CO)C(=O)Cc2cc(NC(=O)Nc3ccc(C(F)(F)F)cc3)ccc2O[C@@H]1CN(C)S(=O)(=O)c1cn(C)cn1 | 111.9*
58 | COc1ccc(C)cc1NC(=O)NCc1cc(C)n(C)n1 | 38.8
59 | C[C@@H]1CN([C@@H](C)CO)C(=O)c2cccc(NS(C)(=O)=O)c2O[C@H]1CN(C)Cc1ccc(Cl)c(Cl)c1 | 2.9
60 | CC(C)=CCn1cnc(=N)c2[nH]cnc21 | -0.1
61 | C[C@H]1CN([C@@H](C)CO)C(=O)c2cccc(NS(=O)(=O)c3cn(C)cn3)c2O[C@H]1CN(C)S(=O)(=O)c1ccc(Cl)cc1 | -1.5
62 | COc1ccc(C(=O)O[C@H]2CC(C)=CCC3(C)CC[C@@](O)(C(C)C)[C@H]23)cc1 (some centres not stated) | 41.5
63 | C[C@@H]1CN([C@@H](C)CO)C(=O)c2cc(NC(=O)Cn3cnnn3)ccc2O[C@@H]1CN(C)C(=O)Nc1cccc2ccccc12 | -14.3
64 | CC(C)NC(=O)Nc1ccc2c(c1)CC(=O)N([C@H](C)CO)C[C@@H](C)[C@H](CN(C)Cc1ccc(C(=O)O)cc1)O2 | -13.1
65 | COc1ccccc1CC(=O)Nc1ccc2c(c1)C(=O)NC2=O | 35.5
66 | CC(=O)NCCOc1ccc(C2CCCCC2)cc1 | 15.5
67 | Cc1noc(C)c1NC(=O)N(C)C[C@H]1Oc2ccc(NC(=O)Nc3ccc(C(F)(F)F)cc3)cc2C(=O)N([C@@H](C)CO)C[C@H]1C | 0.1
68 | CCOC(=O)c1c(C2COc3ccccc3O2)csc1NC(=O)c1ccccc1 (configuration not stated) | 35.6
69 | COc1ccc(CC(=O)Nc2ccc(C(=O)Nc3ccccc3C(=O)O)cc2)cc1OC | 0.4
70 | C[C@H]1CN([C@@H](C)CO)C(=O)c2cccc(NC(=O)C3CCCCC3)c2O[C@H]1CN(C)S(=O)(=O)c1ccc(F)cc1 | 20.6
71 | COc1ccc(CN(C)C[C@@H]2Oc3ccc(NC(=O)NC4CCCCC4)cc3C(=O)N([C@@H](C)CO)C[C@@H]2C)cc1 | 21.8
72 | CC(C)NC(=O)N(C)C[C@@H]1OCCCC[C@@H](C)Oc2ccc(NS(=O)(=O)c3ccc(Cl)cc3)cc2C(=O)N([C@H](C)CO)C[C@@H]1C | 13.8

Values by screen from above:
NOMO-1 viab, nos. 64–69 → -13.1, 35.5, 15.5, 0.1, 35.6, 0.4

New compounds follow.
No. | Structure | NOMO-1 viab
73 | C[C@H](CO)N1C[C@H](C)[C@H](CN(C)C(=O)Nc2ccc(C(F)(F)F)cc2)Oc2ccc(NC(=O)C3CCCCC3)cc2C1=O | ?
74 | C[C@@H]1CN([C@H](C)CO)C(=O)c2cc(NC(=O)Nc3ccccc3)ccc2O[C@H]1CN(C)C(=O)Nc1ccc(F)cc1 | 10.4
75 | Cc1noc(C)c1NC(=O)Nc1cccc2c1O[C@H](CN(C)Cc1ccc(C(=O)O)cc1)[C@@H](C)CN([C@H](C)CO)C2=O | 0.2
76 | O=C(COc1ccccc1[N+](=O)[O-])Nc1cccc2ncccc12 | 36.0
77 | C[C@H](CO)N1C[C@H](C)[C@H](CN(C)Cc2ccc(C(=O)Nc3ccccc3N)cc2)Oc2ccc(NC(=O)Cc3ccccc3)cc2CC1=O | 127.9*
78 | COC(=O)c1cc(NC(=O)COc2c(C)cc(C)cc2Cl)cc(C(=O)OC)c1 | -4.7
79 | O=C(Cc1coc2ccc3ccccc3c12)Nc1cccnc1 | 33.6
80 | CCOC(=O)c1c(NC(=O)C2COc3ccccc3O2)sc2c1CCCC2 (configuration not stated) | 6.3
81 | COc1ccc(NC(=O)Nc2ccc3c(c2)C(=O)N([C@@H](C)CO)C[C@@H](C)[C@H](CN(C)S(=O)(=O)c2ccc(OC)cc2)O3)cc1 | -6.9
82 | O=C(CSc1nnc(-c2cccnc2)o1)c1ccc(Oc2ccccc2)cc1 | 3.0
83 | C[C@H]1CN([C@@H](C)CO)C(=O)c2cccc(NC(=O)c3nc4ccccc4s3)c2O[C@H]1CN(C)S(=O)(=O)c1ccccc1 | 65.6
84 | C[C@H]1CN([C@@H](C)CO)C(=O)c2cc(NC(=O)Cn3cnnn3)ccc2O[C@@H]1CN(C)C(=O)NC1CCCCC1 | -1.8
85 | CC(C)NC(=O)Nc1ccc2c(c1)C(=O)N([C@H](C)CO)C[C@H](C)[C@H](CN(C)Cc1ccccc1)OCCCC[C@@H](C)O2 | -5.3
86 | COc1ccc(NC(=O)c2ccco2)cc1NC(=S)NC(=O)c1ccc(-c2cccc(Cl)c2)o1 | 74.6
87 | C[C@H]1CN([C@@H](C)CO)C(=O)c2cccc(NC(=O)Nc3cccc4ccccc34)c2O[C@H]1CN(C)C(=O)Nc1ccc2c(c1)OCO2 | 29.3
88 | COc1ccc(-c2cc(C(F)(F)F)nc(SCC(N)=O)n2)cc1OC | 1.4
89 | C[C@H](CO)N1C[C@H](C)[C@@H](CN(C)CC2CCCCC2)Oc2c(NC(=O)Nc3ccc(F)cc3)cccc2C1=O | 74.0
90 | O=C1N/C(=N/S(=O)(=O)c2ccccc2)S/C1=C/c1ccco1 | 18.0
91 | CC(=O)c1ccc(NC(=O)CSc2nnc3c4ccccc4n(C)c3n2)cc1 | 15.6
92 | CC(C)NC(=O)Nc1cccc2c1O[C@@H](CN(C)S(=O)(=O)c1cn(C)cn1)[C@@H](C)CN([C@@H](C)CO)C2=O | 10.1
93 | CCOC(=O)c1sc(SC)c2c1CCc1cnc(SC)nc1-2 | -3.4
94 | O=C(COc1cccc2ccccc12)Nc1cccc(C(=O)O)c1 | 1.9

Of the compounds above, two have a cyano group:
No. | Structure | NOMO-1 viab
7 | CC1(C)CC(=O)c2c(SCCOC(=O)c3ccccc3Cl)sc(C#N)c2C1 | -8.1
43 | Cc1ccc(C(=O)Nc2sc3c(c2C#N)CCCC3)cc1S(=O)(=O)N1CCOCC1 | 14.2
